# PABP polyA inh: PABP poly(A) RNA binding inhibitors, primary screen, biochemical, fluorescence polarization, uHTS; Polyadenylate-binding protein 1 (Homo sapiens), P11940; inhibition, % at 35 µM; 290,000 tested, 1% active; AID 2014, 2009;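 active = 50% or more with normal probe brightness, or confirmed in later tests; inconclusive = above 50% with abnormal brightness, or retests that disagree; inactive = below 50% or failed in later tests; about a fifth of its hits are not listed in these tables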;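 note: calls also rest on retests at 20 µM and on dose response follow-up; controls were probe without protein and protein plus probe with vehicle; some compounds called inactive have numbers as strong as hits; many hits fall short of the cut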
# eIF4H FP inh: human eIF4H binding inhibitors, primary screen, translation initiation inhibitor project, biochemical, uHTS, fluorescence polarization | Eukaryotic translation initiation factor 4H (Homo sapiens), Q15056 | AID 2012, 2009 | 290,000 tested, 0.94% active | eIF4H fluorescence polarization binding assay | inhibition, % at 35 µM;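 active = 50% or more with normal probe brightness, or confirmed in later tests; inconclusive = above 50% with abnormal brightness, or retests that disagree; inactive = below 50% or failed in later tests; about a fifth of its hits are not listed in these tables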;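 note: calls also rest on retests at 20 µM and on dose response follow-up; 0% = protein and probe with vehicle and 100% = probe without protein; strong numbers were not always called active; many hits fall short of the cut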
# UUG fidelity: modulators of yeast start codon fidelity, primary screen, whole organism, S. cerevisiae, single point, plate reader; 350,000 tested, 0.13% active; activity score, % at 18.7 µM; S. cerevisiae UUG-firefly luciferase reporter, luminescence/redox ratio;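 active = replicate mean at a twofold rise or more, about +100% in these data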;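 note: firefly luciferase made from a UUG start codon reports start codon fidelity; reporter light over untreated wells divided by growth signal over untreated wells; some hits fall short of that in this replicate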
# Rce1 inh: yeast Rce1p protease inhibitors, primary screen, biochemical, fluorescence, cell-free homogeneous; CAAX prenyl protease 2 (Saccharomyces cerevisiae (strain ATCC 204508 / S288c)), Q03530; yeast membranes, quenched prenylated peptide cleavage fluorescence; calls only; 290,000 tested, 0.27% active;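 active = fall in fluorescence gain of 50% or more versus controls, with final raw signal at or below 3038400; inconclusive = same 50% fall but final raw signal above 3038400; inactive = fall in fluorescence gain under 50%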;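 note: plate controls were neutral control wells for no effect and wells lacking membranes for full effect; tested at 10 µM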
# Target sequence (Q03530 whole entry, looked up): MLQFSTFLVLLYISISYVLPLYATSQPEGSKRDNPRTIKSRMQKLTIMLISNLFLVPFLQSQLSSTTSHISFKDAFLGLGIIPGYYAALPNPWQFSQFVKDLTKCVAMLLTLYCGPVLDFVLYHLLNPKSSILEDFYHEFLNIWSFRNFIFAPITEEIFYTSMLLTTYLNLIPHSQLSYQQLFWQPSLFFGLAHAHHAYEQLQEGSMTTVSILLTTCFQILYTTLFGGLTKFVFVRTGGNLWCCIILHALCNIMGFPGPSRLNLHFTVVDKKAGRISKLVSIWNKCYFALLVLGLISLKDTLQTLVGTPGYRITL
# CSC inhib: cancer stem cell viability inhibitors, primary screen, luminescence; cancer stem cell-like cells viability; inhibition, % at 7.5 µM; 300,000 tested, 1.1% active; AID 2717, 2010;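 active = mean at 75% or more and at least half the replicates too; inconclusive = mean and replicates disagree; tested in HMLE shEcad cells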;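 note: 0% = median of negative and 100% = median of positive control wells; the first replicate is given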
# MT1-MMP act inh: blockers of MT1-MMP proenzyme processing, primary screen, HT1080 RFP-PRO-GFP cells, GFP/RFP fluorescence; GFP/RFP ratio fluorescence, overnight; percent of plate control window, DMSO zero; GFP/RFP ratio change, % at 20 µM; 360,000 tested, 0.061% active;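 active = GFP/RFP ratio change of at least 30% with cell ATP level not reduced by more than half and red fluorescence within 50% of control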; note: strong numbers were not always called active
#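 Compound: 20 µM single dose, 1% DMSO / System: HT1080 RFP-PRO-GFP cells / Controls: DMSO and RFP-L50D-GFP cell wells / Read-out basis: GFP/RFP fluorescence ratio / Schedule: overnight compound exposure at 37 °C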
# HIV Env fusion: inhibitors of HIV-1 Env-driven cell-cell fusion, primary screen, HeLa-JRFL effector, CEM21 target cells, luciferase; inhibition, % at 12.3 µM; 360,000 tested, 1.1% active; AID 651610, 2012;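 active = mean replicate inhibition score of at least 50 and every replicate individually at or above 50; inconclusive = only one of the two criteria met; inactive = mean below 50 and not all replicates reaching 50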;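 note: 0% = plate neutral controls and 100% = maraviroc near 300 nM; one replicate is shown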
# eIF4H FP inh retest: recorded beside eIF4H FP inh, whose call it bears; inhibition, %; compound at 20 µM; confirmation average;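 mean of two retest wells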
# PABP polyA inh retest: further read-out of PABP polyA inh, marked with its call; inhibition, %; compound at 20 µM; confirmation repeats;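 mean of two retest wells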
# MT1-MMP act inh RFP: recorded beside MT1-MMP act inh, whose call it bears; RFP signal change, %; measured here: RFP expression control read;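 0 = vehicle wells; hits needed this value within 50% of zero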
# Active calls of the source: *; i = inactive; ? = inconclusive; . = not tested or not shown. A portion of the library (hit frequency here may not be typical).
SMILES,PABP polyA inh,eIF4H FP inh,UUG fidelity,Rce1 inh,CSC inhib,MT1-MMP act inh,MT1-MMP act inh RFP,HIV Env fusion,others
CC1CCc2sc(C(=O)Nc3ccc(C(N)=O)cc3)cc2C1 (stereo not drawn),-3,-4,-9,i,.,-1,-6,19,
O=C(N[C@@H](Cc1ccccc1)C(=O)O)c1ccc(C(F)(F)F)cc1,9,3,3,i,1,-1,1,3,
O=C(CNC(=O)c1cccc(OC(F)F)c1)Nc1ccc(Cl)cc1,-9,-3,.,i,3,4,4,3,
O=C1Nc2ccc(Br)cc2/C1=N/N=C/C1=C(N2CCOCC2)C(=C\c2ccccc2)/CC1,21,15,-6,i,-2,-12,3,-57,
O=C(/C=C/c1ccccc1)c1ccccc1O,?,?,-8,i,10,-1,-1,.,
CCc1ccc(CCN2C(=O)c3ccccc3C2=O)nc1,4,-10,-17,i,-2,0,3,-1,
Cc1cnc(C(=O)OC(C(=O)c2ccccc2)c2ccccc2)cn1 (stereo not drawn),.,.,4,.,-8,-1,4,.,
CCCCCN(C(=O)CCC(=O)OC(C)C(=O)c1ccc(Cl)cc1)c1c(N)n(CCCC)c(=O)[nH]c1=O (stereo not drawn),.,.,.,i,-6,-2,-4,-10,
CCOc1ccc(NC(=O)CSc2nc(C3CC3)nc3ccccc23)cc1,-1,5,-13,i,.,-3,-6,11,
CN(C)S(=O)(=O)Nc1ccc2c(c1)OCO2,-4,0,.,i,-3,2,4,.,
CCCCn1c(N)c(N(CCOC)C(=O)CSc2nnc(-c3ccco3)n2CC)c(=O)[nH]c1=O,.,.,-7,.,-14,-3,1,.,
CCC1(CC)NC(=O)N(CC(=O)OCC(=O)c2cc(C)c(C)cc2C)C1=O,.,.,-6,.,.,0,0,-1,
COc1cc2[nH]c(=S)nc(NCCc3ccc(C)cc3)c2cc1OC,-3,-17,.,.,.,-1,-9,32,
CCOC(=O)c1cnc2ccc(Cl)cc2c1N1CCN(C)CC1,13,1,-5,i,6,-6,-1,17,
N#CC1=C(N)OC2=C(CN(Cc3ccccc3)C/C2=C\c2cccnc2)C1c1cccnc1 (stereo not drawn),3,53,-12,i,-5,-2,10,.,eIF4H FP inh retest=-3;PABP polyA inh retest=-2
CS(=O)(=O)c1ccc(C(=O)OCC(=O)NC(=O)C2COc3ccccc3O2)cc1[N+](=O)[O-] (stereo not drawn),.,.,4,.,11,-1,1,-4,
Cc1ccc(NC(=S)NCCSc2ccc(Cl)cc2)c(C)c1,1,8,.,i,32,2,5,-28,
Cc1ccc(C(=O)O/N=C(\N)c2ccccn2)c(Cl)c1,-9,8,-96,i,26,-9,1,85*,
CCC(C)[C@H]1CN=C(N)N1CCc1cc(C(F)(F)F)cc(C(F)(F)F)c1 (stereo partly drawn),-7,-3,2,i,14,-5,-3,-2,
O=C1[C@H]2[C@@H](c3ccccc3)N[C@]3(CCCN(Cc4ccc(Br)cc4)C3=O)[C@H]2C(=O)N1Cc1ccccc1,.,.,-15,.,.,5,-4,-43,
Cc1cc(-c2ccccc2)nc(N/N=C/c2ccc(N(C)C)cc2)n1,.,.,.,i,-12,-12,-4,0,
CCCCOc1ccc(C(C)(O)CCN2CCOCC2)cc1 (stereo not drawn),12,-10,-11,i,22,-2,-3,.,
Cn1c(COc2ccc(Cl)cc2)nnc1SCc1ncc(-c2ccccc2)o1,4,-5,-24,i,11,1,-4,14,
O=C(NC(=S)Nc1cccnc1Cl)c1ccc(Cl)cc1,9,-4,-12,i,3,0,-4,-77,
Cc1ccc(CNC(=O)CN2CCN(c3ccc(F)cc3)CC2)cc1,-8,-9,-9,i,2,-3,-4,-6,

# (further entries)
SMILES,PABP polyA inh,eIF4H FP inh,UUG fidelity,Rce1 inh,CSC inhib,MT1-MMP act inh,MT1-MMP act inh RFP,HIV Env fusion,others
CCOc1ccc(/C=N/OCC(=O)NC(c2ccccc2)c2ccccc2)cc1,-10,-6,-13,i,39,-48,-38,16,
CC(=O)Nc1ccc(SCC(=O)c2ccc(Br)s2)cc1,2,0,-15,i,12,-3,0,-1,
O=C(Nc1nc(-c2ccc([N+](=O)[O-])cc2)cs1)c1c(F)cccc1F,-11,-4,-18,i,.,0,-9,-13,
O=C(CC(C(=O)O)c1c[nH]c2ccccc12)c1ccccc1 (stereo not drawn),1,-1,1,i,0,5,8,12,
CC1(NC(=O)c2ccccc2)CCN(CCc2cccs2)C1=O (stereo not drawn),.,.,-16,.,-10,-1,3,-7,
Cc1cc(C)nc(N/N=C/c2ccccc2OCc2cccc(Br)c2)n1,1,37,-23,i,29,-14,-19,.,
O=C(c1ccccc1)C1N=NCC1c1ccc(Cl)cc1 (stereo not drawn),.,.,-10,.,.,-4,-5,-13,
CN(CC(=O)Nc1ccc(F)cc1)C(=O)c1cccc(S(=O)(=O)N2CCN(c3ccccc3)CC2)c1,5,-2,17,i,0,1,-20,-12,
CC(NC(=O)C(=O)c1cn(CC(=O)N2CCCC2)c2ccccc12)c1ccccc1 (stereo not drawn),.,.,5,.,.,-4,-1,2,
CN(C)C(=S)SCC(=O)Nc1ccc(Cl)cc1Cl,2,8,.,i,10,2,2,19,
Cc1ccc(-n2nnnc2SCC(=O)N2CC(=O)Nc3ccccc32)cc1,-10,-11,-12,i,-6,2,-1,.,
CC1CCN(C(=O)Cn2c(=O)n(CCCC(=O)NCc3ccco3)c(=O)c3sccc32)CC1,10,-9,-10,i,-11,-1,3,3,
Cc1ccccc1CNC(=O)C(=O)NCCC1CCCCN1S(=O)(=O)c1ccccc1 (stereo not drawn),.,.,-12,i,5,5,-5,7,
Cc1cnc(NS(=O)(=O)c2ccccc2)c(C)n1,0,-6,-10,i,-6,-15,-5,-7,
O=C(CSc1nnnn1-c1ccccc1)CC(=O)Nc1ccc(Cl)cc1,2,-2,-24,i,34,-1,-29,.,
COc1cccc(C(=O)NN=C2CCCC2)c1,7,1,-17,i,-13,-6,1,-1,
O=C(Nc1cc(Cl)c(Cl)cc1Cl)c1cccnc1,8,8,-4,i,.,1,-2,-13,
CNC(=O)c1ccsc1NC(=O)c1coc2ccccc2c1=O,-11,10,-14,i,8,-2,1,-15,
COc1ccc(NC(=O)/C=N/O)cc1,-6,3,.,i,-13,1,1,19,
C[C@@H]1CN([C@H](C)CO)C(=O)c2c(c3ccccc3n2C)-c2ccccc2CO[C@@H]1CN(C)C(=O)Nc1ccc2c(c1)OCO2,.,.,-14,.,.,1,0,-66,
O=C(c1c(O)c2ccccc2oc1=O)C1CCC1,6,-15,-3,i,-7,-1,2,.,
CC1CCc2nn(CC(=O)N3CCN(C(=O)c4ccco4)CC3)cc2C1 (stereo not drawn),-8,1,6,i,23,1,7,-9,
O=C(CSc1nnc(CNC(=O)C23CC4CC(CC(C4)C2)C3)n1-c1ccccc1)Nc1ccc(F)cc1,-11,-17,-4,i,-4,0,-9,10,
FC(F)(F)c1cc(-c2cccs2)n[nH]1,-9,-5,-17,i,-6,-10,-4,-17,
O=C(COc1ccc2ccc(=O)oc2c1)N1CCN(C(=O)C2COc3ccccc3O2)CC1 (stereo not drawn),7,-4,-14,i,-18,0,0,-2,

# Continued:
SMILES,PABP polyA inh,eIF4H FP inh,UUG fidelity,Rce1 inh,CSC inhib,MT1-MMP act inh,MT1-MMP act inh RFP,HIV Env fusion,others
COc1ccccc1OCCCn1cc(C#N)c2ccccc21,-7,3,-13,i,16,0,-4,.,
CN1C(N)=NC(=O)/C1=C/c1ccc(OC(F)(F)F)cc1,-15,-4,-20,i,5,3,0,4,
CN(C(=O)COC(=O)c1cc(S(=O)(=O)N2CCOCC2)c(Cl)cc1Cl)C1CCS(=O)(=O)C1 (stereo not drawn),17,-7,20,i,7,-3,2,-12,
O=C(O)CCCNC(=O)c1cccc(C(=O)NCCCC(=O)O)n1,4,4,-30,i,-6,4,8,25,
Cc1nc2cccc(C(=O)Oc3ccc([N+](=O)[O-])cc3)c2o1,4,1,.,i,-4,0,8,10,
COc1ccc(C2=Nn3c(nnc3-c3ccccc3Cl)SC2)cc1OC1CCOC1 (stereo not drawn),.,.,8,.,25,-2,-11,2,
O=CNc1cc(-c2ccccc2)cn2c(-c3ccc(F)c(Cl)c3)cnc12,.,.,-11,.,.,-3,0,4,
O=C(COC(=O)Cc1ccsc1)NNC(=O)c1ccccc1,.,.,-33,.,7,-2,1,.,
Cn1c(=O)c2c(nc(-n3ccnc3)n2Cc2ccccc2)n(C)c1=O,-2,-7,.,i,-4,-1,-5,10,
CCOC(=O)C1CCCN(C(=O)c2ccc(C(F)(F)F)nc2C)CC1 (stereo not drawn),.,.,-20,.,.,3,6,-39,
O=C1/C(=C/c2ccc(O)cc2)SC(=S)N1Cc1cccnc1,0,-5,.,i,7,-93,10,-4,
CCN1CCN(C(=O)C23CCC(C)(C(=O)C2Br)C3(C)C)CC1 (stereo not drawn),-9,-2,-13,i,-7,2,1,8,
COC(=O)C1CSC(C(=O)OC)N1C(=O)Nc1ccccc1 (stereo not drawn),2,7,-9,i,4,2,3,.,
O=C(/C=C/c1cn(-c2ccccc2)nc1-c1ccc2c(c1)OCCO2)NCCCN1CCOCC1,-14,-2,.,i,-10,3,-4,21,
COc1ccc(CCn2c(C)c(C(C)=O)c(C(C)=O)c2C)cc1OC,10,-10,-9,i,-2,4,5,-2,
CC(C)(C)c1ccc(C(=O)N2CCNC(=O)C2CC(=O)Nc2ccc(F)cc2)cc1 (stereo not drawn),3,15,4,i,15,6,5,-1,
O=C(Nc1cccc(C(F)(F)F)c1)Nc1nnc([C@@H]2C[C@H](O)[C@@H](CO)O2)s1,.,.,-5,.,.,-16,-11,30,
CC(/C=N/NC(=O)Cc1cccs1)=C\c1ccccc1,-3,-13,-6,i,-3,-5,3,-16,
CC1CC(C)CN(CCOCCSc2ccccc2)C1 (stereo not drawn),-6,-4,.,i,29,1,-2,4,
CC(Sc1ccc(Cl)cc1)C(=O)NCc1cccnc1 (stereo not drawn),3,1,-25,i,-5,-3,0,.,
Cc1ccc(F)cc1NC(=O)CCNC(=O)c1ccc([N+](=O)[O-])cc1,-5,-1,-19,i,-14,1,5,-12,
C#CC(=O)CC1(CN(Cc2ccccc2)C(=O)OC(C)(C)C)CCCCC1,.,.,3,.,.,-11,-6,-22,
CCOc1cc(/C=N\NC(=O)c2ccc(C)nc2)cc([N+](=O)[O-])c1O,12,-2,-13,i,.,17,5,.,
C=CCSc1nc(-c2ccc3c(c2)OCO3)cc(C(F)(F)F)c1C#N,-6,-1,-13,i,4,-11,-4,5,
NC(N)=NC1=NC(=O)C(Cc2ccccc2)S1 (stereo not drawn),1,1,-11,i,-1,3,4,-15,
CCCCNc1nc(N)nc(-c2cc(Cl)ccc2O)n1,-3,1,.,i,.,.,.,-213,
O=C(CC12CC3CC(CC(C3)C1)C2)NCc1ccncc1,4,-9,-13,i,-7,1,10,?,
Cc1cccc2sc(NC(=O)CCNS(=O)(=O)c3cccs3)nc12,-3,-5,-4,i,15,-5,-2,-15,
